Screening results from PubChem BioAssay.
GIV-Gai inh = inhibitors of GIV peptide binding to Galpha-i3, primary screen, biochemical, fluorescence polarization, FITC-GIV GBA peptide, rat Galphai3; Guanine nucleotide-binding protein G(i) subunit alpha-3 (Rattus norvegicus), P08753; 90 min; active compounds read low; scaled: aluminum fluoride 0%, vehicle 100%; percent of control (FP), % (no concentration beside the values); 210,000 compounds, 0.42% hits; AID 1224905, 2016;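 active = replicate mean at 85% of control or lower, very high polarization wells dropped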;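 note: wells of about 15 µL received 100 nL stock; the first replicate is given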
Target sequence (P08753 whole entry, looked up): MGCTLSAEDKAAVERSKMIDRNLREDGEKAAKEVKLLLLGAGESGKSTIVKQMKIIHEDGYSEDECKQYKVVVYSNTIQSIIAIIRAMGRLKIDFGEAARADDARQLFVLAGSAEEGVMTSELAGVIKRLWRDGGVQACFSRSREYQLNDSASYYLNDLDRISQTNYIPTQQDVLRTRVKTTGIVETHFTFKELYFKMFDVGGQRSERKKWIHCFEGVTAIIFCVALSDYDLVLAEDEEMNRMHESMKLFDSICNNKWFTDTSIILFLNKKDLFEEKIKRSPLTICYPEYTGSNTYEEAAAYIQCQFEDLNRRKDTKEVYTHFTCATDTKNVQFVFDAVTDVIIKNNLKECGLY
HCMV NEC inh = inhibitors of HCMV UL50-UL53 interaction, biochemical, HTRF. normalized percent inhibition. 190,000 compounds, 0.15% hits. AID 1918969, 2023. inhibition, % (no concentration beside the values);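 active = both replicates at 50% or more, plus weaker picks with an unusually low signal ratio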;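 note: stock transfer was 100 nL into about 20 µL; 0% = negative control wells and 100% = wells with untagged competitor protein; inactives centre near -12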
Sa growth 42C = S. aureus growth inhibition at 42 and 30 °C, primary screen, LtaS inhibitor project, RN4220, two temperatures; OD600, 20 h, 42 °C; active compounds read low; relative growth, % (concentration not given with the values); 170,000 compounds, 0.53% hits; AID 720641, 2013;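 active = growth at 42 °C up to 50% and 20 or more points under that at 30 °C, or under 10% at both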;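 note: 300 nL library stock went into each well; scaled to the means of positive and negative controls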
Sa growth 42C second temp = second read-out of Sa growth 42C, no call of its own (marks repeat the call); relative growth, %; measured here: growth at 30 °C;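 optical density after 20 h as mean of two plates; 100% = untreated growth and lower means inhibition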
The depositor's hits bear a star; / = no result given.

SMILES	GIV-Gai inh	HCMV NEC inh	Sa growth 42C	Sa growth 42C second temp
Nc1cc(=O)[nH]c(SCc2ccccc2)n1	100	-11	107	82
CCOC(=O)c1cccc(C(=O)Nc2cccc(NC(=O)c3cccc(C(=O)OCC)n3)n2)n1	102	-15	88	88
COc1cccc(CNC(=O)CSc2ncc(S(=O)(=O)c3ccc(C)c(Cl)c3)c(=O)[nH]2)c1	100	/	112	94
Cc1ccc(NC(=O)CSc2nc3c(c(=O)n2Cc2ccccc2)SCC3)cc1	99	/	100	92
COCCNC(=O)C1CCN(C(=O)c2cccn2-c2cccnc2)CC1	99	-22	/	/
CC(=O)Nc1ccc(OC(=O)c2cccc(C(F)(F)F)n2)cc1	111	6	108	95
CCN1CCSc2ccc(C(=O)NCc3ccc(F)cc3)cc21	98	13	87	109
Cc1cc(C)n2nc(NCc3ccccc3F)nc2n1	100	-24	/	/
COc1cc(CN(C(=O)COc2ccc(Cl)c(C)c2)c2ccccn2)cc(OC)c1OC	101	-13	96	74
Cc1nn(-c2ccc(N3CCCCC3)nn2)c(C)c1CCC(=O)NCc1ccccc1	98	/	90	91

Profiles, quoted from the list. Order of values: GIV-Gai inh | HCMV NEC inh | Sa growth 42C | Sa growth 42C second temp
`COCCNC(=O)C1CCN(C(=O)c2cccn2-c2cccnc2)CC1` in the list: 99 | -22 | / | /
`Cc1cc(C)n2nc(NCc3ccccc3F)nc2n1` in the list: 100 | -24 | / | /
`CCOC(=O)c1cccc(C(=O)Nc2cccc(NC(=O)c3cccc(C(=O)OCC)n3)n2)n1` in the list: 102 | -15 | 88 | 88
`COc1cc(CN(C(=O)COc2ccc(Cl)c(C)c2)c2ccccn2)cc(OC)c1OC` in the list: 101 | -13 | 96 | 74
`COc1cccc(CNC(=O)CSc2ncc(S(=O)(=O)c3ccc(C)c(Cl)c3)c(=O)[nH]2)c1` in the list: 100 | / | 112 | 94

The list goes on:
SMILES	GIV-Gai inh	HCMV NEC inh	Sa growth 42C	Sa growth 42C second temp
Cc1oc2ncnc(N3CCOCC3)c2c1C(=O)NCC1CCCO1 (stereo unspecified)	111	5	86	98
COc1cc(C)c(S(=O)(=O)Nc2cccc(-c3ccc(N4CCOCC4)nn3)c2)cc1C	103	-11	108	87
O=C(CSc1nc(=O)n(Cc2ccco2)c2c1CCC2)Nc1ccccc1C(F)(F)F	108	/	101	100
COc1ccc2c(c1)c1nc(C)sc1n2CCN1CCOCC1	102	11	97	99
CCCCOc1ccc(-c2cc3c(N4CCN(c5ccccn5)CC4)nccn3n2)cc1	105	-4	/	/
O=C(Cc1cccs1)Oc1ccc2oc3ccccc3c2c1	/	-24	95	88
O=C(COc1ccccc1)n1cc(Br)cn1	/	-10	96	79
CCCCCc1c(O)nc(SCCN(CC)CC)n(C(=O)c2ccccc2)c1=O	113	18	100	100
CNC(=O)CSc1nnc(-c2ccc3c(c2)OCO3)n1-c1ccccc1	/	-1	99	95
NC(=O)C1CCN(CC(=O)NCc2ccc3c(c2)OCO3)CC1	108	-9	97	92
O=C(C(c1ccccc1)c1ccccc1)N1CCN(c2ccccn2)CC1	101	-19	118	88
Nc1nn(-c2ccccc2)nc1C(=O)OCc1c(F)cccc1Cl	103	-4	102	93
CN(C)c1cnn(-c2ccccc2)c(=O)c1Cl	106	-36	98	97
Cc1cccc(CN2CCCN(CC(=O)Nc3cc(Cl)ccc3C)S2(=O)=O)c1	97	-27	/	/
O=C(C1CCCCC1)N1CCN(c2cc(C(F)(F)F)nc3ccccc23)CC1	112	11	99	100
O=C(c1ccccc1-c1nc(-c2ccc(F)cc2)no1)N1CCc2ccccc21	99	-7	/	/
Cn1cc(C(=O)Nc2cc(F)ccc2F)c2[nH]c(=O)n(-c3ccccc3)c(=O)c21	106	7	/	/
CCN1CCN(CC(O)COCc2ccccc2)CC1 (stereo unspecified)	/	2	100	93
Cc1ccc(SCc2cc(=O)n3ccsc3n2)cc1	96	-38	/	/
COc1cc(C=C2C(=O)NC(=S)NC2=O)ccc1OCCSc1ccc(C)cc1	107	-13	/	/
CCCNC(=O)c1ccccc1SC	110	-3	89	99
CC(=O)N/C(=C\c1ccccc1)C(=O)Nc1ccc(O)cc1	/	-26	87	76
CC(C)C(=O)Oc1ccc2c(c1)oc(=O)c1ccccc12	99	/	103	79
Cc1nc(NCc2cccc(Br)c2)c2onc(-c3ccc(Cl)cc3)c2n1	93	-5	/	/
CCOc1cc(C#N)c(NC(=O)c2ccc(OC)c(S(=O)(=O)N3CCCC3)c2)cc1OCC	105	0	93	87
Cc1cccc(NC(=O)CN2CCC(C)CC2)c1C	/	-27	88	97
CN1CCc2c(nnn2-c2ccccc2)C1	103	-13	95	87
CN(C)c1nc(F)c(F)c(S(=O)(=O)c2ccccc2)c1F	/	-24	95	88
CC(C)NC(=O)c1c(Cl)nc2sccn12	/	5	95	98
COc1cc2c(=O)oc(-c3c(-c4c(F)cccc4Cl)noc3C)nc2c(OC)c1OC	102	-18	80	83
CCS(=O)(=O)NCC(c1cccnc1)S(=O)(=O)c1ccc(F)c(C)c1 (stereo unspecified)	99	-3	/	/
CN(C)S(=O)(=O)c1ccc2c(c1)N(CC(=O)N1CCCC1)C(=O)C1CCCCN21 (stereo unspecified)	96	-17	/	/
CCOC(=O)c1cnc2c(C#N)c(C)nn2c1C	107	/	90	93
O=C(C(Cc1ccccc1Cl)C(=O)N1CCc2ccccc21)N1CCc2ccccc21	99	-29	99	80
Cc1ccccc1C(=O)Nc1ccccc1-c1nc(-c2ccccc2)no1	100	8	89	98
CC(C)(C)c1ccc(S(=O)(=O)N2CCCCC2C(=O)O)cc1 (stereo unspecified)	98	-25	121	111
COc1ccc(S(=O)(=O)NCCc2c(C)[nH]c3c(Cl)cccc23)cc1C	102	-9	/	/
CC(C)(C)OC(=O)CSc1nnc(Cc2cccc3ccccc23)n1N	/	-16	92	87
CC1Cc2ccccc2N1C(=O)Cn1c(=O)oc2ccccc21 (stereo unspecified)	100	-6	104	85
CCC1CCCCN1C(=O)CSc1c2c(nc3ccccc13)CCC2 (stereo unspecified)	104	-5	97	87
CN(CC(=O)NCc1ccccc1)S(=O)(=O)c1ccc2[nH]c3c(c2c1)CCCC3	104	/	104	85
COc1ccccc1N1CCN(CCCNC(=O)c2nn(C)c3c2COc2ccccc2-3)CC1	99	-5	116	80
O=S(=O)(NC1CCCCC1)c1ccc(S(=O)(=O)N2CCN3CCCC3C2)cc1 (stereo unspecified)	102	2	113	87
Cc1ccc(-c2csc3ncnc(N4CCNCC4)c23)cc1	101	/	109	85
O=C(CCN1CCOCC1)NN=C1C2CC3CC(C2)CC1C3	/	12	88	91
Cc1sc2ncnc(N3CCC(C)CC3)c2c1C	99	-23	110	82
N#Cc1ccccc1C[N+]1=C(N)c2ccccc2C1	105	-18	/	/
Cc1ccc(S(=O)(=O)NCc2nc(-c3cccc(C)c3)no2)cc1	109	12	94	100
CCOC(=O)c1c(C)oc2nc(C)nc(NCCc3ccc(OCC)c(OCC)c3)c12	105	/	92	88
COc1ccccc1NC(=O)C1=C(C)Nc2nc(SCc3ccccc3C)nn2C1CC(C)C (stereo unspecified)	107	-18	103	86

The list goes on; it opens with the 5 that closed the last part.
SMILES	GIV-Gai inh	HCMV NEC inh	Sa growth 42C	Sa growth 42C second temp
Cc1sc2ncnc(N3CCC(C)CC3)c2c1C	99	-23	110	82
N#Cc1ccccc1C[N+]1=C(N)c2ccccc2C1	105	-18	/	/
Cc1ccc(S(=O)(=O)NCc2nc(-c3cccc(C)c3)no2)cc1	109	12	94	100
CCOC(=O)c1c(C)oc2nc(C)nc(NCCc3ccc(OCC)c(OCC)c3)c12	105	/	92	88
COc1ccccc1NC(=O)C1=C(C)Nc2nc(SCc3ccccc3C)nn2C1CC(C)C (stereo unspecified)	107	-18	103	86
COc1ccc(C(=O)OC2=C(C(=O)c3ccccc3)N(C)S(=O)(=O)c3ccccc32)cc1	101	-18	/	/
CC(NC(=O)c1ccccc1)c1nc2ccccc2n1Cc1ccc(Cl)cc1 (stereo unspecified)	109	-4	111	85
O=C(OCc1ccccn1)c1ccc(COc2ccccc2Cl)o1	104	-5	112	85
Cc1nn(C)cc1S(=O)(=O)N1CCN(c2ccccn2)CC1	106	-39	101	100
CCOc1ccc(-c2cccc(NS(=O)(=O)c3c(C)cc(C)cc3C)c2)nn1	104	/	61	49
CCCOc1ccc(CNC(=O)C2CCCN(c3nc4c(C)cc(C)cc4s3)C2)cc1 (stereo unspecified)	106	-20	117	88
CC(=O)Nc1ccc(NC(=O)c2cccc(Cl)c2)c(C)c1	98	/	99	87
CCOc1ccc(-c2ccc(SCc3nc(-c4ccc(OC)cc4OC)no3)nn2)cc1	106	-13	/	/
COC(=O)C(Cc1ccccc1)NC(=O)c1nn(C)c(=O)c2ccccc12 (stereo unspecified)	/	-30	110	83
CCCCc1nn2c(=O)cc(COC(=O)c3ccccc3NC(=O)c3cccs3)nc2s1	101	/	95	92
Cc1ccc(-c2nccc(Nc3ccc(C(=O)Nc4ccc5c(c4)OCCO5)cc3)n2)cc1	102	3	/	/
Cc1[nH]c(C)c(S(=O)(=O)N2CCC(C(=O)Nc3ccc(F)c(Cl)c3)CC2)c1C(=O)N1CCCCC1	107	-19	/	/
COc1ccc(NC(=O)C2CCCN(S(=O)(=O)c3cc(-c4noc(C)n4)ccc3Cl)C2)cc1OC (stereo unspecified)	101	-14	/	/
O=C1CC(c2cccc(O)c2)Oc2ccccc21 (stereo unspecified)	/	-11	87	70
CCn1c(=O)c(N2CCCC(C(=O)N3CCC(N4CCCCC4)CC3)C2)nc2ccccc21 (stereo unspecified)	111	-4	/	/
COc1ccc2[nH]c(C)c(CCNCC(C)Cc3ccc4c(c3)OCO4)c2c1 (stereo unspecified)	105	1	106	74
COc1cccc(C2C3=C(CC(c4ccccc4)CC3=O)Nc3onc(C)c32)c1OC (stereo unspecified)	104	10	/	/
Cc1cc(C)cc(NC(=O)Cn2nnc(C(=O)NCc3ccco3)c2N)c1	103	-12	108	84
COc1cc(C#N)ccc1OCc1nc(-c2ccc(Cl)cc2)no1	/	-25	93	89
CCN(/C=N/c1ncc(-c2ccc(Br)cc2)s1)CC	96	-19	74	53
CCN(CC)c1nc(Nc2ccc(Cl)cc2)nc(N(CC)CC)n1	105	-2	117	96
COCCCN1C(=O)CSC1c1cn(-c2ccccc2)nc1-c1cccs1 (stereo unspecified)	/	-36	101	92
COc1cc(-c2noc(-c3ccc(N4CCCCC4)c([N+](=O)[O-])c3)n2)cc(OC)c1OC	107	-9	107	87
Cc1ccc(Cl)cc1N1CCN(S(=O)(=O)c2ccc3c(c2)CC(=O)N3C)CC1	104	/	98	87
COc1cc(C(=O)N(Cc2ccc(N(C)C)cc2)CC2CCCO2)cc(OC)c1OC (stereo unspecified)	105	-18	116	89
Cc1cc(-c2ccc(C)c(S(=O)(=O)NCC3CCCO3)c2)on1 (stereo unspecified)	107	-9	/	/
COc1ccc(Cc2nn3c(C)nnc3s2)cc1	106	-4	111	91
CCOC(=O)c1[nH]c(=O)[nH]c1CC1C(=O)CC(C)(C)CC1=O	/	4	108	91
CCCN1C(=O)C2(Nc3ccccc3-c3nc4ccccc4n32)c2ccccc21 (stereo unspecified)	103	0	65	45
O=C(NC1CCCC1)C1CCCN(c2ccc3cc(S(=O)(=O)N4CCOCC4)ccc3n2)C1 (stereo unspecified)	105	-30	/	/
O=c1cc[nH]n1-c1cccc(Cl)n1	111	-8	/	/
O=C(NCc1ccccc1Cl)C1CCCN(C(=O)c2cnn(-c3ccccc3)c2-n2cccc2)C1 (stereo unspecified)	100	-28	104	81
O=S(=O)(c1ccccc1)c1nc(-c2ccccc2F)oc1N1CCOCC1	112	-7	103	90
COc1ccc(Cc2nc3c4cnn(-c5c(F)c(F)cc(F)c5F)c4ncn3n2)cc1OC	105	/	95	87
CCn1c(=O)n(CC)c2cc(N3CCCCC3)c(NC(=O)Nc3ccc(OC)c(OC)c3)cc21	100	-18	/	/
Cc1ccc(-c2n[nH]c3c2C(c2ccccc2)NC3=O)cc1 (stereo unspecified)	107	/	139	75
Cc1ccccc1CN1CCc2nc(N3CCN(c4ncccn4)CC3)ncc2C1	107	/	97	69
COc1ccc2[nH]c(C(=O)N3CCCN(Cc4ccc(F)cc4)CC3)cc2c1	107	-27	97	91
CCCCc1nnc(NC(=O)CSCc2cc(=O)n3oc(C)cc3n2)s1	104	-12	/	/
CN(C(=O)CSc1n[nH]c(N)n1)c1ccccc1	/	-12	90	96
CCN(C(C)=O)c1nc(COC(=O)c2ccc3c(c2)OCCO3)cs1	/	-12	101	92
COc1ccc(COc2ccc(=O)n(-c3ccc(C(=O)Nc4cc(OC)ccc4OC)cc3)n2)cc1	104	-2	/	/
COc1ccc(CCC(=O)Nc2ccc3nc(NS(C)(=O)=O)sc3c2)cc1	102	-34	/	/
O=C(Nc1ccc(Cl)cc1)C1CCN(c2nc3ccccc3n3cccc23)CC1	99	-3	105	84
Cc1cccc(N2CCN(C(=O)C3CCN(Cc4nc(-c5ccc(Cl)cc5)oc4C)CC3)CC2)c1C	97	/	102	88
COc1ccc(/C=C2/N=C3SC(C)C(=O)N3C2=O)cc1 (stereo unspecified)	105	-54	117	86
Cc1onc(-c2ccccn2)c1C(=O)NCCc1c[nH]c2ccc(Cl)cc12	98	-20	/	/
